From PubChem BioAssay
CapD inh = inhibitors of Bacillus anthracis CapD enzyme | purified CapD enzyme, fluorescence intensity read-out; hits give low values; some hits fall short of the stated cut | AID 492967 | 140,000 compounds, 0.23% hits | z-score (concentration not given with the values);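 active = z-score under -4 in either of two replicates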;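 also: stock transfer was 100 nL into about 40 µL; score is relative to mean and spread of the plate; one replicate is shown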
AID504770 = E. coli YBA685 growth inhibition, screen for V. cholerae RctB inhibitors; z-score (concentration not given with the values); E. coli YBA685 rctB-dependent plasmid, OD600 growth, 3 h; hits give low values; 130,000 compounds, 0.27% hits;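 active = z-score under -2 on both plates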;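 also: wells of about 30 µL received 100 nL stock; score is relative to mean and SD of the test wells; the first replicate is given; strong numbers were not always called active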
Active calls of the source: *; i = inactive; x = not tested or not shown.

mol	CapD inh	AID504770
NC(=O)CSc1nnc(-c2ccccc2)n1-c1ccccc1	x	0.4
CS(=O)(=O)c1ccc(-n2cc(-c3ccccc3NC(=O)Nc3cccc(C(F)(F)F)c3)cn2)cc1	-0.83	x
O=C(Nc1ccc2cn[nH]c2c1)c1cccc(Oc2ccccc2)c1	-0.085	0.65
COc1cccc(CC(NC(C)=O)C(=O)NC2CCN(c3nc(C)cc(C)n3)CC2)c1OC (stereo not drawn)	x	-0.05
CSCCC(C(=O)O)n1c(O)c(C2=c3cc(Br)ccc3=NC2=O)sc1=S (stereo not drawn)	-0.37	x
CSC1=C(C#N)C(c2ccc(OCc3ccccc3)cc2)C2=C(CCCC2=O)N1 (stereo not drawn)	0.07	-0.2
COc1ccc(NC(=O)NNC(=O)C2CC(c3cccnc3)=NO2)cc1 (stereo not drawn)	0.76	x
O=c1c(Cl)c(Cl)cnn1CN1CCCC1c1nc2ccccc2s1 (stereo not drawn)	x	-0.55
COc1ccc(C(=O)Nn2c(SCc3cccc([N+](=O)[O-])c3)nc3ccccc3c2=O)cc1	-0.71	x
N#Cc1c(N2CCCC2)n[nH]c1N	x	0.5
Clc1ccc(N=Cc2c(-c3ccccc3)nc3n2CCS3)cc1	-1.1	-0.65
COCCN(Cc1nnc(-c2cccs2)o1)C(=O)c1cc(Cl)c(OC(C)C)c(OC)c1	x	1.4
COc1ccccc1CNc1nc(-c2ccccc2F)nc2ccccc12	-0.12	x
COc1ccc(CN2CC(C(=O)NCc3ccc4c(c3)OCO4)CC2=O)cc1 (stereo not drawn)	-2.1	-1.5
O=C1c2cccc3cccc(c23)N1S(=O)(=O)c1cccs1	-0.52	1.4
Cn1c(=O)c(=O)n(C)c2cc(S(=O)(=O)NCCOc3ccccc3)ccc21	x	0.3
COc1ccc2ncc(S(=O)(=O)c3ccc(Cl)cc3)c(N3CCCCC3C)c2c1 (stereo not drawn)	-0.65	-0.3
COc1ccc(OCC(=O)N2CCc3ccccc3C2)cc1	x	-0.75
COc1ccc2nc(NC(=O)C3CCCCC3)sc2c1	i	-0.85
CSc1nc2ccc3nc(NC(=O)C4=COCCO4)sc3c2s1	1.6	1
CNCc1cc(C)[nH]n1	x	0.15
O=C1NC(=O)/C(=C\c2c(OCc3ccc([N+](=O)[O-])cc3)ccc3ccccc23)N1	-0.62	x
Cc1c(C(=O)N2CCN(C)CC2)oc2c1C1(CCC2)SCCS1	-0.14	-1.1
N#CCc1ccc(N)cc1	x	0.25
O=C(NCCc1ccccc1)c1cc2ccccc2o1	0.21	-2
Cc1ccc2c(c1)c(=O)c1ccccc1n2CC(=O)Nc1cc(Oc2ccc(F)cc2F)cc([N+](=O)[O-])c1	2	x
O=C(C1CCN(c2ccc(C(F)(F)F)cn2)CC1)N1CCN(Cc2ccc3c(c2)OCO3)CC1	-1.2	x
Cc1ccc(C(=O)OCC(N)=O)s1	-0.41	0.7
CC1(C)Cc2cccc(C(=O)N3CCC(O)(c4ccc(Cl)cc4)CC3)c2O1	-0.29	-0.85
O=C(Cn1c2ccccc2c(=O)c2cc([N+](=O)[O-])ccc21)Nc1ccc(F)c(Cl)c1	1.2	x

A second format for some results above.
mol: CC1(C)Cc2cccc(C(=O)N3CCC(O)(c4ccc(Cl)cc4)CC3)c2O1
  CapD inh: -0.29
  AID504770: -0.85
mol: CNCc1cc(C)[nH]n1
  CapD inh: x
  AID504770: 0.15
mol: COc1ccc2ncc(S(=O)(=O)c3ccc(Cl)cc3)c(N3CCCCC3C)c2c1 (stereo not drawn)
  CapD inh: -0.65
  AID504770: -0.3
mol: O=C1NC(=O)/C(=C\c2c(OCc3ccc([N+](=O)[O-])cc3)ccc3ccccc23)N1
  CapD inh: -0.62
  AID504770: x

The list goes on.
mol	CapD inh	AID504770
CC(c1ccccc1)n1c(=S)[nH]c2ccccc21 (stereo not drawn)	0.16	-0.15
CC12CCC(O)CC1=CCC1C2CCC2(C)C(O)/C(=C/c3ccc(F)cc3)CC12 (stereo not drawn)	-0.04	0.75
O=C(O)c1ccc(CSc2nnc(Cc3ccccc3)n2-c2ccccc2)cc1	0.06	-0.8
C=CCN=C1N=C2SC=CN2C(=O)/C1=C\c1ccccc1	x	1.4
O=C(Nc1ccccc1C(=O)N1CCCC1)C(c1ccccc1)c1ccccc1	0.59	-0.4
O=C1Nc2ccccc2/C1=C/c1ccccc1N1CCOCC1	-2.4	2.7
N#CCCN(CC1COc2ccccc2O1)C(=O)c1ccccc1 (stereo not drawn)	0.39	-0.9
CNC(=O)NC(=O)C(C)Sc1nnc(Nc2ccc(OC)cc2)s1 (stereo not drawn)	x	0.35
CCc1cccc(NC(=O)CSc2ncccn2)c1	x	-0.25
Cc1ccc(-c2noc(CN(C(=O)c3ccc(C)cc3Cl)C(C)C)n2)cc1	-0.21	-0.8
Cc1noc(C)c1/C=C1\N=C(C23CC4CC(CC(C4)C2)C3)OC1=O	x	-0.55
NC(=O)C1CCN(C(=O)c2ccc3c(=O)n(C4CCCCC4)c(SCc4cc(F)ccc4F)nc3c2)CC1	-0.47	x
O=C1C2C3C=CC(CO)(O3)C2C(=O)N1c1ccc(F)cc1 (stereo not drawn)	-0.06	x
Cc1ccccc1Cn1c(=O)[nH]c2ccccc21	0.48	-0.25
N#Cc1cccc(NC(=O)CNC(=O)Cc2ccccc2)c1	x	-1.7
O=C1CCCC2=C1C(c1cc3c(cc1[N+](=O)[O-])OCO3)Nc1ccc(C(=O)c3ccccc3)cc1N2 (stereo not drawn)	-1.1	x
Cc1nc(-c2ccccc2)c(CC(=O)O)s1	-0.53	-1.4
CC(=O)NC1=NC(=O)/C(=C\c2cccs2)N1C	-3.1	-0.55
Cn1nc(-c2ccc(C(=O)NCCN3CCOCC3)cc2)c2ccccc2c1=O	0.05	0.05
CC(=O)NCC1CCCN2CCCCC12 (stereo not drawn)	-0.42	0.5
O=C(OCc1nccn1Cc1ccc(Cl)cc1)c1ccccc1	-0.18	-0.3
O=C(c1cc(-c2ccco2)on1)N1CCCC1	0.15	0.25
CCCN(C1CCN(C)CC1)S(=O)(=O)c1ccc(N)cc1	-0.12	x
N#Cc1c(SC2CCCCC2)sc(C(=O)O)c1-c1ccc(Cl)cc1	-0.23	x
CC(C)(C)Nc1ncnc2c1cnn2-c1ccccc1	0.52	0.05
CCOC(=O)C1CCN(c2ccc([N+](=O)[O-])cc2C(=O)Nc2cc(OC)cc3cccnc23)CC1	-0.37	x
Cc1nc(SC(C)C(=O)NCc2ccc3c(c2)OCO3)c2cnn(-c3ccccc3)c2n1 (stereo not drawn)	x	-0.2
COc1ccc(Br)c(C(=O)CC#N)c1	-0.83	x
CC(C)(C)Sc1ccccc1/C=N/O	0.5	1.6
O=C(Sc1ccc(Cl)cc1)c1ccco1	-0.25	0.55
COc1ccc(C2CC(=O)C3=C(C2)Nc2ccccc2N(C(=O)C2CC2)C3c2cccnc2)cc1OC (stereo not drawn)	1.7	0.1
CC(C)SC1OC(CO)C(O)C(O)C1O (stereo not drawn)	1.2	-0.15
CC1CCN(C(=O)CCS(=O)(=O)c2ccc3c(c2)SCC(=O)N3)CC1	-0.39	-1.1
O=S(=O)(NC1CCCCC1n1cc(-c2ccccc2)nn1)c1ccc(Cl)cc1 (stereo not drawn)	-0.42	-0.1
O=C(Nc1ccccc1Br)c1cc(S(=O)(=O)NCc2ccc3c(c2)OCO3)ccc1F	0.26	x
CN(C)S(=O)(=O)c1cccn1-c1ncc(C(F)(F)F)cc1Cl	-0.23	x
Cc1ccc(C(=O)CSc2nc3ccccc3c(=O)n2Cc2ccco2)cc1	x	-0.75
Oc1ccc2ccccc2c1CN1CCN(Cc2ccccc2)CC1	i	2.1
COc1ccc(C2(c3ccc(OC)cc3)C=Cc3c(ccc4cc(OC)ccc34)O2)cc1	0.12	x
O=[n+]1cc(-c2ccccc2)n([O-])c2c1CCCC2	-0.23	-1.2
COc1ccc(-c2cc(C(F)(F)F)n3ncc(C(=O)N4CCN(c5ccccc5)CC4)c3n2)cc1OC	-0.89	x
COc1ccccc1C1=NOC(C(=O)O)C1 (stereo not drawn)	0.52	-0.1
CCOc1cc(C2NC(=O)NC(C)=C2C(=O)Nc2ccccc2C)ccc1O (stereo not drawn)	0.14	x
CN(C)/N=C(\Cn1nnc(N2CCCC2)n1)c1ccc(Cl)cc1	-0.14	1.1
COC(=O)CSc1nc2ccc(Cl)cc2s1	-0.45	x
N#Cc1ncoc1-c1ccc(C(F)(F)F)cc1	0.45	-0.4
O=C(NC1CCN(C(=O)c2ccco2)CC1)C1CCCCC1	-0.11	x
CC1(C)CC(=O)c2cc3c(N)c(C(=O)c4ccc(Cl)cc4)sc3nc2C1	-0.48	-0.35
O=C(O)c1ccccc1C(=O)c1ccc2c(c1)OCCO2	x	-0.35
O=[n+]1c2c(n([O-])c3c1CCCC3)CCCC2	0.075	0.05
COc1ccc2[nH]c(C(=O)Nc3ccccc3Cl)cc2c1	8.3	1.2
C[N+](C)(C)CCOc1ccc2nc(N)sc2c1	0.005	-0.2
COC(=O)CC12CC3CC(C1)CC(C(=O)OC)(C3)C2	-0.44	1.7
CN(CC(=O)Nc1ccc(S(=O)(=O)N(C)C)cc1)Cc1ccc(C(F)(F)F)cc1	x	0.15
NS(=O)(=O)c1ccc(CCNC(=O)c2ccco2)cc1	x	1.4
CC(C)C(=O)Nc1ccc(Cl)c(C(=O)c2ccccc2)c1	-0.53	-0.75
CCN(CC)c1ccc(/C=C2\C(=O)NC(=S)N(c3cc(OC)ccc3OC)C2=O)c(O)c1	-0.92	x
CCOC(=O)c1sc(Nc2ccccc2)c(-c2nc3ccccc3[nH]2)c1N	-0.23	1.2
Cc1ccc(S(=O)(=O)NCc2csc(C)n2)c(C)c1	x	2.3
CCOC(=O)CSCN1CCCCC1	-1.1	-0.45

Compound profiles (already shown). Values in the order: CapD inh | AID504770
Shown for COc1ccccc1C1=NOC(C(=O)O)C1 (stereo not drawn) = 0.52 | -0.1
Shown for Oc1ccc2ccccc2c1CN1CCN(Cc2ccccc2)CC1 = i | 2.1
Shown for O=[n+]1c2c(n([O-])c3c1CCCC3)CCCC2 = 0.075 | 0.05

Next compounds:
mol	CapD inh	AID504770
S=C=NCCc1ccccc1	x	-0.9
CCOC(=O)C1=NNC2C(=O)N(Cc3ccccc3)C(=O)C12 (stereo not drawn)	x	0.4
Cc1nn(Cc2ccccc2)c(C)c1C(=O)OCC(=O)N1CCCCC1C (stereo not drawn)	x	-0.15
CCCOc1ccc(C(F)(F)F)cc1NC(=O)CN1CSCC1=O	x	-0.85
O=C(O)c1cc(=O)[nH]c2c(Cl)cccc12	3.6	-1.7
COc1ccc(C(=O)NC2CCCCC2NC(=O)c2ccc(OC)cc2)cc1 (stereo not drawn)	0.28	1.1
CSc1nc(N)nc(C23CC4CC(CC(C4)C2)C3)n1	0.07	x
Nc1nc(CN2CCCCC2)nc2ccccc12	x	-0.25
CN1/C(=C\C=[N+](C)c2ccccc2)C(C)(C)c2cc(Cl)ccc21	-2.4	x
CC(C)(C)c1cc2nc(C(F)(F)F)cc(N3CCN(C(=O)C4CC4C(=O)O)CC3)n2n1 (stereo not drawn)	22	x
Nc1ccc2c(c1)nc(CO)n2CCO	3.6	-0.55
O=C(O)C1CSC2(CCN(Cc3ccccc3)CC2)N1 (stereo not drawn)	x	0
O=C(Oc1cccc2cccnc12)c1cn(-c2ccccc2)nc1-c1ccccc1	0.16	0.1
CCN(c1ccccc1)S(=O)(=O)c1ccc2[nH]c(=O)c(=O)[nH]c2c1	4.4	-0.6
CCOc1cc(/C=C2\N=C(c3cc(F)c(F)cc3Cl)OC2=O)ccc1OC(C)=O	-0.075	x
CC1CCN(Cc2c(O)ccc3c4c(c(=O)oc23)CCC4)CC1	34	x
O=C(CSc1nc2[nH]c(=O)cc(O)c2s1)NCc1ccccc1	x	0.3
Cn1nc(OC(C)(C)C(=O)Oc2ccc(Cl)cc2Cl)cc1C(F)(F)F	-0.4	1.6
O=c1c(Oc2ccccc2Br)c(C(F)(F)F)oc2c(CN3CCCC3)c(O)ccc12	-0.21	x
Cc1cc(C)cc(OCC(=O)n2nc(C)cc2C)c1	-0.23	-0.8
O=C(NCC(=O)N1CCN(C(c2ccccc2)c2ccc(Cl)cc2)CC1)c1cccnc1 (stereo not drawn)	-0.62	x
Cc1ccc(Nc2nc(C3(C)CC4(CC(C)OC4=O)C(=O)O3)cs2)cc1 (stereo not drawn)	-0.74	x
COc1ccc(C2/C(=C(/O)c3ccc(C)cc3)C(=O)C(=O)N2c2ccc(O)cc2)cc1 (stereo not drawn)	-1.1	x
CSC1=NC(=Nc2c(C)cccc2C)C2(CCC(C(C)(C)C)CC2)N1c1ccc(Cl)cc1 (stereo not drawn)	1.1	x
O=C(Nc1ccccc1C(=O)N1CCCC1)Oc1ccccc1	0.77	-0.95
CSC1=NCCN1C(=O)c1ccc(C(F)(F)F)cc1	x	-1.5
O=C(OCCN1CCN(Cc2ccc(Oc3ccccc3)cc2)CC1)N1CCN(c2cccc3[nH]ccc23)CC1	0.45	x
COc1ccc(C(=O)N/C(=C\c2cn(S(=O)(=O)N(C)C)c3ccccc23)C(=O)NCc2ccco2)cc1	-0.72	0.75
CC1CCCC(C)N1C(=O)COC(=O)c1ccc(Br)cc1 (stereo not drawn)	x	0.3

Compounds were not picked by outcome (roughly 0.37% active in at least one column).
